HIV Env fusion: inhibitors of HIV Env-mediated cell fusion | HeLa-JRFL Env/CEM21 cell fusion, luciferase | inhibition, % at 12.3 µM | 360,000 tested, 1.1% active | AID 651610;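 active = mean replicate inhibition score of at least 50 and every replicate individually at or above 50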;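 note: 0% = plate neutral controls and 100% = maraviroc near 300 nM; one replicate is shown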
* = called active by the depositor; [ ] = dose if it differs, or a comment.

Molecule,HIV Env fusion
C[C@H]1CN([C@@H](C)CO)C(=O)Cc2cc(NC(=O)Cc3ccccc3)ccc2O[C@@H]1CN(C)Cc1ccc(C(F)(F)F)cc1,-11[16.7 µM]
O=C(NCC(F)(F)F)[C@@H]1[C@@H](CO)[C@@H]2Cn3c(cccc3=O)[C@@H]2N1CCC(F)(F)F,-6[16.7 µM]
O=C(C1=C[C@@H](c2ccccc2)C[C@@H](OCc2ccc(CO)cc2)O1)N1CCCC1,6[16.7 µM]
COC(=O)C[C@H]1CC[C@@H]2[C@@H](COc3ccc(NC(=O)NC(C)C)cc3C(=O)N2C)O1,-1[16.7 µM]
C[C@H]1CN([C@@H](C)CO)C(=O)CCCn2cc(nn2)CO[C@@H]1CN(C)Cc1ccc(O)cc1,-6[16.7 µM]
C[C@@H]1CCCCO[C@H](CN(C)C(=O)Nc2ccccc2)[C@H](C)CN([C@@H](C)CO)C(=O)c2cc(NC(=O)Nc3ccccc3)ccc2O1,-17[16.7 µM]
Cc1ccc(S(=O)(=O)Nc2ccc3c(c2)C(=O)N([C@H](C)CO)C[C@H](C)[C@@H](CN(C)S(=O)(=O)c2ccc(F)cc2)O3)cc1,11[16.7 µM]
C[C@@H]1CCCCO[C@@H](CN(C)CC2CC2)[C@H](C)CN([C@H](C)CO)C(=O)c2cc(NC(=O)Nc3ccc4c(c3)OCO4)ccc2O1,25[16.7 µM]
Cc1cc(NC(=O)CCc2c[nH]c3ccccc23)ccc1Nc1cccnc1,-43
C[C@@H]1CN([C@@H](C)CO)C(=O)Cc2cc(NS(=O)(=O)c3cn(C)cn3)ccc2O[C@@H]1CN(C)Cc1ccc(-c2ccccc2)cc1,15[16.7 µM]
C[C@@H]1CN(c2ccc(N3CCN(C(=O)OC(C)(C)C)C[C@H]3C)cc2C#N)CCN1Cc1ccccc1,37
N#C[C@H]1[C@H](c2ccccc2C2=CCCCC2)[C@H](CO)N1C(=O)Cc1ccncc1,-30[16.7 µM]

Next part:
Molecule,HIV Env fusion
COc1ccc(CN2C[C@@H](O)COC[C@@H]3O[C@H](CC(=O)NCCN4CCCC4)CC[C@H]32)cc1,-7[16.7 µM]
Cc1[nH]c2ccccc2c1CC(=O)Nc1ccc(Nc2cccnc2)c(-c2ccc(F)c(F)c2)c1,-101
Cc1ccc(S(=O)(=O)N(C)C[C@@H]2Oc3ccc(NS(=O)(=O)c4ccc(Cl)cc4)cc3C(=O)N([C@H](C)CO)C[C@H]2C)cc1,19[16.7 µM]
COc1cccc(NC(=O)N(C)C[C@@H]2Oc3ncc(C#Cc4ccncc4)cc3C(=O)N([C@@H](C)CO)C[C@H]2C)c1,-5[16.7 µM]
C[C@@H]1CN([C@H](C)CO)C(=O)c2cccc(NS(C)(=O)=O)c2O[C@H]1CN(C)Cc1ccc2c(c1)OCO2,0[16.7 µM]
CCCC(=O)OC[C@H]1CN(C2CCCC2)S(=O)(=O)c2c(Oc3ccc(C(C)(C)C)cc3)cccc2O1,26
Cc1noc(C)c1NC(=O)Nc1ccc2c(c1)C(=O)N(C)[C@@H]1CC[C@H](CC(=O)N[C@H]3CCN(Cc4ccccc4)C3)O[C@@H]1CO2,9[16.7 µM]
O=C([C@@H]1[C@@H](CO)[C@@H]2Cn3c(ccc(C4=CCCC4)c3=O)[C@@H]2N1Cc1nccs1)N1CCOCC1,10[16.7 µM]
CCCNC(=O)N1C[C@@H](C)[C@@H](OC)CN(C)C(=O)c2ccc(NS(=O)(=O)CC(F)(F)F)cc2OC[C@@H]1C,-1[16.7 µM]
CCC(=O)Nc1ccc2c(c1)C(=O)N(C)C[C@@H](OC)[C@@H](C)CN(C(=O)CC)[C@H](C)CO2,-7[16.7 µM]
COC(=O)C1=C(C)N(Cc2ccccc2C(F)(F)F)C(=NCc2ccc3c(c2)OCO3)NC1c1ccc(Cl)cc1 (stereo not given),-117
C[C@@H]1CN([C@H](C)CO)C(=O)c2cc(NS(C)(=O)=O)ccc2O[C@H]1CN(C)S(=O)(=O)c1ccccc1,-9[16.7 µM]

Later entries
Molecule,HIV Env fusion
C=CCN=C1NC(c2cccc(Cl)c2)C(C(=O)OC)=C(C)N1Cc1cccc(C(F)(F)F)c1 (stereo not given),13
Cn1cc(CCOCc2ccccc2)c2ccccc21,-6
Cc1cccc(Cl)c1NC(=O)N(C)c1ccccc1,9
CCCN1CCCCC(NC(=O)c2ccc(C)cc2C)C1=O (stereo not given),28
C[C@H](O)C#Cc1cnc2c(c1)C(=O)N([C@@H](C)CO)C[C@@H](C)[C@@H](CN(C)C(=O)Nc1ccc(C(F)(F)F)cc1)O2,14[16.7 µM]
C[C@H]1CN([C@@H](C)CO)C(=O)c2cc(C3=CCCC3)cnc2O[C@H]1CN(C)C(=O)C1CC1,-10[16.7 µM]
CCOC(=O)C1CSCCS(=O)(=O)N1Cc1ccc(Br)cc1 (stereo not given),-50
Cc1cc2c(c(=O)o1)[C@@]1(C(=O)N(C)c3ccccc31)C1=C(CCCC1=O)O2,5
CC(C)NC(=O)Nc1cccc2c1O[C@@H](CN(C)S(=O)(=O)c1cccs1)[C@H](C)CN([C@H](C)CO)C2=O,-31[16.7 µM]
CCC(=O)N1C[C@@H](C)[C@H](OC)CN(C)C(=O)c2ccc(NC(=O)C3CCOCC3)cc2OC[C@H]1C,7[16.7 µM]
N#CCS(=O)(=O)c1cccc[n+]1[O-],3
C[C@H](CO)N1C[C@H](C)[C@@H](CN(C)C(=O)CCC(F)(F)F)OCc2ccccc2-c2c(n(C)c3ccccc23)C1=O,50[16.7 µM]

Given as labelled records: part of the list above.
C[C@H]1CN([C@@H](C)CO)C(=O)c2cc(C3=CCCC3)cnc2O[C@H]1CN(C)C(=O)C1CC1
  HIV Env fusion: -10[16.7 µM]
C[C@H](CO)N1C[C@H](C)[C@@H](CN(C)C(=O)CCC(F)(F)F)OCc2ccccc2-c2c(n(C)c3ccccc23)C1=O
  HIV Env fusion: 50[16.7 µM]
CCOC(=O)C1CSCCS(=O)(=O)N1Cc1ccc(Br)cc1 (stereo not given)
  HIV Env fusion: -50
Cc1cc2c(c(=O)o1)[C@@]1(C(=O)N(C)c3ccccc31)C1=C(CCCC1=O)O2
  HIV Env fusion: 5

Further structures
Molecule,HIV Env fusion
O=C(C[C@@H]1C[C@@H]2c3cc(NS(=O)(=O)c4ccccc4)ccc3O[C@@H]2[C@H](CO)O1)NCC(F)(F)F,0[16.7 µM]
CCCNC(=O)Nc1ccc2c(c1)OC[C@@H](C)N(C(=O)C1CCOCC1)C[C@H](C)[C@@H](OC)CN(C)C2=O,9[16.7 µM]
Cc1ccc(S(=O)(=O)N[C@@H]2C=C[C@@H](CC(=O)NCCN3CCCCC3)O[C@H]2CO)cc1,-4[16.7 µM]
CCN=C1NC(c2ccccc2)C(C(=O)OC)=C(C)N1Cc1ccc(C(F)(F)F)cc1 (stereo not given),17
C[C@@H]1CN([C@@H](C)CO)C(=O)c2c(c3ccccc3n2C)-c2ccccc2CO[C@@H]1CN(C)C(=O)CCN(C)C,-8[16.7 µM]
CS(=O)(=O)Nc1ccc2c(c1)[C@@H]1C[C@@H](CC(=O)NCc3ccc(Cl)cc3)O[C@@H](CO)[C@@H]1O2,-38[16.7 µM]
CCNC(=O)C[C@@H]1CC[C@@H]2[C@H](COC[C@H](O)CN2C(=O)Nc2ccc(C(F)(F)F)cc2)O1,25[16.7 µM]
COc1cccc(CNC(=O)C[C@H]2C=C[C@@H](NC(=O)C3CCC3)[C@@H](CO)O2)c1,29[16.7 µM]
CC(C)NC(=O)Nc1ccc2c(c1)C(=O)N([C@H](C)CO)C[C@@H](C)[C@@H](CN(C)CC1CCCCC1)OCCCC[C@@H](C)O2,-3[16.7 µM]
C[C@H](CO)N1C[C@H](C)[C@H](CN(C)S(=O)(=O)c2cccs2)Oc2c(NS(=O)(=O)c3ccccc3)cccc2C1=O,-8[16.7 µM]
CN1CCN(C(=O)C[C@@H]2CC[C@@H]3[C@H](COc4ccc(NC(=O)C5CCOCC5)cc4C(=O)N3C)O2)CC1,-39[16.7 µM]
CO[C@@H]1CN(C)C(=O)c2ccc(NC(=O)C3CCOCC3)cc2OC[C@@H](C)N(S(=O)(=O)c2ccc(C)cc2)C[C@H]1C,-35[16.7 µM]

Following part:
Molecule,HIV Env fusion
CN1[C@@H]2c3ccc(-c4cccc(F)c4)c(=O)n3C[C@H]1[C@H](CO)[C@H]2C(=O)Nc1nccs1,6[16.7 µM]
COc1cc(CN2CCN(c3ncc(Cc4ccccc4)cn3)CC2)cc(OC)c1,4
COCC(=O)N1C[C@@H](C)[C@@H](OC)CN(C)C(=O)c2cc(NC(=O)c3cc(C)on3)ccc2OC[C@H]1C,11[16.7 µM]
O=C(NS(=O)(=O)c1cccc(F)c1)[C@H]1O[C@@H](n2ccc(=O)[nH]c2=O)[C@H](O)[C@@H]1O,-15
CS(=O)(=O)Nc1ccc2c(c1)[C@H]1C[C@H](CC(=O)NCCc3ccccc3)O[C@@H](CO)[C@H]1O2,15[16.7 µM]
C[C@H]1CN([C@@H](C)CO)C(=O)c2ccccc2-c2ccccc2CO[C@H]1CN(C)Cc1ccc(F)cc1,73*[16.7 µM]
C[C@@H]1CCCCO[C@H](CN(C)S(C)(=O)=O)[C@H](C)CN([C@@H](C)CO)C(=O)c2cc(NC(=O)CCC(F)(F)F)ccc2O1,5[16.7 µM]
CO[C@H]1CC[C@H]2CCOc3c(C#N)cccc3C(=O)N(C)CC3(CCCCC3)CC(=O)N(C)C[C@@H]1O2,3[16.7 µM]
COc1ccccc1-c1ccc2n(c1=O)C[C@@H]1[C@@H](CO)[C@H](C(=O)N3CCOCC3)[C@H]2N1CC1CC1,1[16.7 µM]
CC(C)NC(=O)N(C)C[C@@H]1OCCCC[C@@H](C)Oc2ccc(NC(=O)C3CCCCC3)cc2C(=O)N([C@@H](C)CO)C[C@H]1C,5[16.7 µM]
CC(C)(C)[S@@](=O)N1Cc2cc(C(=O)N3CCc4ccccc4C3)nc(-c3cccc(-c4ccncc4)c3)c2[C@H]1CCO,-3[16.7 µM]
CN1CCN(C(=O)C[C@@H]2C[C@H]3c4cc(NC(=O)C5CCC5)ccc4O[C@H]3[C@@H](CO)O2)CC1,-2[16.7 µM]

New compounds follow:
Molecule,HIV Env fusion
C[C@H]1CN([C@@H](C)CO)C(=O)c2cc(NC(=O)Cc3ccccc3)ccc2O[C@@H]1CN(C)C(=O)Nc1ccc(C(F)(F)F)cc1,16[16.7 µM]
CN1c2ccc(-c3ccc(C#N)cc3)cc2[C@@H]2[C@@H](CCN2C(=O)NC2CCCCC2)[C@H]1CO,-23[16.7 µM]
CN1[C@H](C(=O)NCCCN2CCOCC2)[C@@H](CO)[C@@H]2Cn3c(ccc(/C=C/c4ccccc4)c3=O)[C@@H]21,4[16.7 µM]
C[C@H]1CN([C@@H](C)CO)S(=O)(=O)c2ccc(C3=CCCC3)cc2O[C@@H]1CN(C)C(=O)C1CC1,3[16.7 µM]
O=C(C[C@H]1C[C@H]2c3cc(NC(=O)C4CCC4)ccc3O[C@H]2[C@@H](CO)O1)NCc1cccc(F)c1,1[16.7 µM]
CO[C@@H]1CN(C)C(=O)c2cc(NS(=O)(=O)c3cccc(F)c3)ccc2OC[C@@H](C)N(C(=O)Cc2cccnc2)C[C@H]1C,-1[16.7 µM]
CCCNC(=O)C[C@@H]1C[C@H]2c3cc(NC(=O)NC4CCCCC4)ccc3O[C@H]2[C@H](CO)O1,3[16.7 µM]
CCCC(=O)Nc1ccc2c(c1)C(=O)N(C)[C@H]1CC[C@H](CC(=O)NCCN3CCCCC3)O[C@H]1CO2,-3[16.7 µM]
Nc1[nH]c(C(=O)c2ccc(Br)cc2)c(-c2ccccc2Br)c1C(=O)NCCc1c[nH]c2ccccc12,-4
CCn1c2c(n(C(C)=O)c1=O)C=C(C(=O)N1CCCC1)C(C)C(c1ccccc1)=C2 (stereo not given),4
CCCCCCCCN1C(=O)[C@@H](CC(=O)NCCCCc2ccccc2)C[C@@]2(C(=O)OC)C1=C[C@H](C(C)(C)C)O[C@@H]2C,25
CCCN1C[C@@H](C)[C@@H](OC)CN(C)C(=O)c2ccc(NC(=O)c3ccccc3F)cc2OC[C@@H]1C,-14[16.7 µM]

An excerpt from above in order of count of non-hydrogen atoms, largest number first.
Molecule,HIV Env fusion
CC(C)NC(=O)N(C)C[C@@H]1OCCCC[C@@H](C)Oc2ccc(NC(=O)C3CCCCC3)cc2C(=O)N([C@@H](C)CO)C[C@H]1C,5[16.7 µM]
CCNC(=O)C[C@@H]1CC[C@@H]2[C@H](COC[C@H](O)CN2C(=O)Nc2ccc(C(F)(F)F)cc2)O1,25[16.7 µM]
Cc1ccc(S(=O)(=O)N[C@@H]2C=C[C@@H](CC(=O)NCCN3CCCCC3)O[C@H]2CO)cc1,-4[16.7 µM]

Continued:
Molecule,HIV Env fusion
CO[C@H]1CC[C@H]2CCN(C)C(=O)[C@@H](C)[C@@H](OC)CN(C)C(=O)c3cc(C#N)ccc3OC[C@@H]1O2,20[16.7 µM]
CO[C@H]1CC[C@H]2CCN(C)C(=O)C[C@H](c3ccccc3)CN(C)C(=O)c3cccc(C#N)c3OC[C@@H]1O2,27[16.7 µM]
CC(C)(C)C1=CC(CC(N)=O)(C(C)(C)C)OC1=O (stereo not given),7
CO[C@@H]1CN(C)C(=O)c2cc(NC(=O)Nc3ccccc3F)ccc2OC[C@H](C)N(C(C)=O)C[C@@H]1C,0[16.7 µM]
S=C1NCN(CC2CC2)CN1,9
C[C@@H]1CN([C@H](C)CO)C(=O)CCCn2cc(nn2)CO[C@@H]1CN(C)C(=O)Nc1ccccc1,6[16.7 µM]
CC(C)NC(=O)Nc1ccc2c(c1)C(=O)N([C@H](C)CO)C[C@H](C)[C@@H](CN(C)C(=O)Nc1cccc3ccccc13)O2,-5[16.7 µM]
CCOC(=O)c1cc2c(c(-c3cccc(-c4cccc(OC)c4)c3)n1)[C@H](CCO)N(S(=O)C(C)(C)C)C2 (stereo not given in full),5[16.7 µM]

An excerpt; count on the stated rates, not on these rows.
